# Screening results (PubChem BioAssay)
# PINK1 expr mod: A Quantitative High throughput Screen to Identify Chemical Modulators of PINK1 Expression; Potency, µM (titrated, usually from 76.6 µM), for inactives: top-dose activation (PINK1 increase), hits mostly activators; PINK1 immunofluorescence, high-content cytometry, 24 h; 0.2% of 410,000 active; AID 624263, 2012; active = well fitted activation curve with a large enough effect; inconclusive = small, poorly fitted or top-dose-only effect; inactive = flat fitted curve, though single readings scatter; cell line not stated here;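 note: potency is the fitted concentration of half-maximal effect; % of control where 0% means no effect; nearly all actives have a fitted effect of over 65% in size; a mitochondrial uncoupler was the plate control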
#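 Compound titrations (5 concentrations, 24 h) on a stable cell line; DMSO and CCCP controls. Endpoint: fixed-cell PINK1 immunofluorescence with mitochondrial, cell and nuclear markers, scanned by microplate cytometer.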
# Six1-Eya2 blk: qHTS Assay for Inhibitors of the Six1/Eya2 Interaction. Homeobox protein SIX1 (Homo sapiens) + Protein phosphatase EYA2 (Homo sapiens), …. AlphaScreen GST-Six1/His-Eya2 binding, biochemical; hits give low values; control for the full effect not named in the record. activity change, % (no concentration beside the values). 0.56% of 360,000 active. AID 651725, 2012; in the data active = activity change below about -65%; inconclusive = about -30% to -65%; inactive = above about -30%; note: % is set by controls: 0 for no effect and ±100 for the full control effect; compound concentration not given in the record
# Target sequence (O00167 whole entry, looked up): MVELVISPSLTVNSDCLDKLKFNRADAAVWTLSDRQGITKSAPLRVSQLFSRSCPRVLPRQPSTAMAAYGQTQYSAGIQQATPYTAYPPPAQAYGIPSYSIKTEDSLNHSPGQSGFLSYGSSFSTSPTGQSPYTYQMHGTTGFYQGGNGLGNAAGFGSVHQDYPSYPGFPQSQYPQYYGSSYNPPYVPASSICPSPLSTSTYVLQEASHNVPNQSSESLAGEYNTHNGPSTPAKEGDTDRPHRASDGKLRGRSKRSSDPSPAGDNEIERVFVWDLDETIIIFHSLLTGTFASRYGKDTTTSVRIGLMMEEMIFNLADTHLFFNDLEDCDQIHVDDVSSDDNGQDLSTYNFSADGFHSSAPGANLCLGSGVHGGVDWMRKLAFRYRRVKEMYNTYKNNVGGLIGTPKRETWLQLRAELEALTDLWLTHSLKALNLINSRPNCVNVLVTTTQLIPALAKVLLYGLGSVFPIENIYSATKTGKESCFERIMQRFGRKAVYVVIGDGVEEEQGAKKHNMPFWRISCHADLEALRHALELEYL
# Target sequence (Q15475 whole entry, looked up): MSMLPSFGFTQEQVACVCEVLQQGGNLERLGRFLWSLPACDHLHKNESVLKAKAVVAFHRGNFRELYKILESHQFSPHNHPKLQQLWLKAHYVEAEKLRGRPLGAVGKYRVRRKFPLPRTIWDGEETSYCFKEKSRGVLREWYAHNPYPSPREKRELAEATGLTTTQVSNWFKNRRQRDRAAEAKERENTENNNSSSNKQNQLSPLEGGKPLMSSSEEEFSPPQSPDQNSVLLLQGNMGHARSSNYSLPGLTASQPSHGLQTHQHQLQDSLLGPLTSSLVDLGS
#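 Homogeneous AlphaScreen proximity assay pairing GST-Six1 with His-tagged Eya2 (added as 5X mix: 250 nM and 500 nM) in 50 mM Tris pH 8.0, 300 mM NaCl, 1 mM TCEP. Glutathione donor and nickel acceptor beads; 1 h, 37 °C, dark.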
# D2 ag: Beta-Arrestin HTS for Positive Allosteric Modulators of the Human D2 Dopamine Receptor: Agonists; DiscoveRx PathHunter D2 beta-arrestin, luminescence, 90 min; 100% = 57 uM dopamine signal; activation, % (test concentration not listed); 0.084% of 360,000 active; D(2) dopamine receptor (Homo sapiens), P14416; AID 624465, 2012; in the data active = activation above about 40%; inconclusive = about 15% to 40%; inactive = below about 15%; note: compound concentration not given in the record; the text of the record calls up to 30% inactive
#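 Agonist mode: compounds alone added to overnight-plated D2 PathHunter cells for 90 min at 37 C, with 57 uM final dopamine (EC100) defining full response. Beta-arrestin recruitment detected by chemiluminescent reagent, read after 1 h at ambient temperature.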
# TRPML1 agonist: qHTS for Agonists of the Human Mucolipin Transient Receptor Potential 1 (TRPML1). TRPML1-expressing cells, Ca2+ dye fluorescence, FDSS; host cell line not named in the record; reference of the full effect not given here. activation, % (test concentration not listed). 0.12% of 410,000 active. AID 624414, 2012; in the data active = activation above about 50%; inconclusive = about 30% to 50%; inactive = below about 30%; note: 0% is about no effect; the text of the record puts the active cut at 80%
#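 In this qHTS format, compounds were pin-transferred onto Ca8-dye-loaded TRPML1-DL cells induced with Tet overnight, and intracellular Ca2+ fluorescence was recorded kinetically for 110 s after a 10 s baseline. A subsequent 4uM final 54-4 (EC80) addition followed by a second 110 s read served as the antagonist phase.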
# CtBP-E1A inh: qHTS Assay for Inhibitors of the CtBP/E1A Interaction; CtBP / adenovirus E1A interaction (AlphaScreen); 0.49% of 340,000 active; activity change, % (concentration not given with the values); AID 651724, 2012; AlphaScreen GST-E1A/His-CtBP binding, 1536-well; hits give low values; control for the full effect not named in the record; in the data active means activity change below about -65%; inconclusive means about -30% to -65%; inactive means above about -30%; note: % is set by controls: 0 for no effect and ±100 for the full control effect
#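 Homogeneous bead-based format: GST-tagged E1A captured on glutathione donor beads, His-tagged CtBP on nickel acceptor beads; compounds precede bead addition by 2 h at 37 °C.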
# D2 PAM: Beta-Arrestin HTS for Positive Allosteric Modulators of the Human D2 Dopamine Receptor: Potentiators. D(2) dopamine receptor (Homo sapiens), P14416. DiscoveRx D2 beta-arrestin cells, luminescence, 90 min; 100% = 57 uM dopamine signal. potentiation, % (concentration not given with the values). 0.23% of 360,000 active. AID 624464, 2012; active = potentiation of 50% or more; inconclusive = 30% to 50%; inactive = 30% or less;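 note: compound concentration not given in the record; tested on top of an EC20 dose of dopamine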
#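 PathHunter D2 cells, attached overnight at 37 deg C, received compound in DMSO plus dopamine at EC20 (50 nM final) for 90 min at 37 deg C. Beta-arrestin recruitment was read as luminescence after 1 h with detection reagent at ambient temperature.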
# * hit, by the source's call; ? = inconclusive; / = not tested or not shown; [ ] = dose if it differs, or a comment.
SMILES,PINK1 expr mod,Six1-Eya2 blk,D2 ag,TRPML1 agonist,CtBP-E1A inh,D2 PAM
COc1ccc(CCNC(=O)c2cccc(S(=O)(=O)N3CCOCC3)c2)cc1OC,1.0%,0.1,-4.5,0.5,-1.9,-9.3
COC(=O)C1=C(C(=O)OC)[C@@H]2N(Cc3ccccc3)c3ccccc3[C@@]23C[C@@H](C(=O)OC)N(C(=O)c2cccs2)C3=N1,?,0.5,0.5,0.1,/,-4.0
CCCn1c(-c2ccc(OC)cc2)nc2c(=O)n(C)c(=O)[nH]c21,7.2%,1.8,-1.4,-0.4,-1.3,-15.6
O=C(OCCN1C(=O)c2ccccc2C1=O)c1ccccc1,-1.0%,16.9,1.5,2.8,0.4,10.0
Cc1ccc(NC(=O)CN2C(=O)c3ccccc3S2(=O)=O)c(C)c1,-0.8%,-1.8,-1.5,2.5,6.6,-3.7
Cc1ccc(C)c(OCCCN2CCNCC2)c1,-0.4%,-0.1,-3.0,0.0,3.7,-4.1
CCCCn1c(N)c(N(CCC(C)C)C(=O)C2CSC3(C)CCC(=O)N23)c(=O)[nH]c1=O (configuration not stated),-1.9%,0.0,-1.8,0.3,-21.7,-5.3
Cc1c(C(=O)NCc2ccc3c(c2)cc(C)n3C)cccc1[N+](=O)[O-],2.9%,-22.4,-5.9,1.5,-23.3,-5.5
O=C(Nc1ccccc1)c1cnc2ccccc2n1,2.3%,-3.5,-1.2,0.3,1.9,-12.1
COc1cc2[nH]c(=S)nc(NCc3cccs3)c2cc1OC,2.0%,-84.5*,2.0,1.2,-89.5*,-9.6
COc1cc(O)c2c(=O)c3c(O[C@H]4O[C@@H](CO)[C@H](O)[C@@H](O)[C@@H]4O)ccc(O)c3oc2c1,0.1%,-4.6,2.1,-0.2,-4.8,18.0
CCOC(=O)CCC(=O)Nc1ccccc1C(N)=O,-2.0%,2.4,-0.5,1.5,3.8,-8.0
CCN(Cc1ccccc1)S(=O)(=O)c1ccc(C(=O)N2CCN(c3nc4ccccc4s3)CC2)cc1,2.9%,0.6,-1.2,2.9,-0.9,12.5
COc1ccc(C(=O)N[C@H](C(=O)NCCc2ccc3c(c2)OCCO3)C(C)C)cc1,4.8%,5.9,-2.1,-1.4,/,1.2
CC(=O)N1CCN(c2c(F)c(F)c(C(F)(F)F)c(F)c2F)CC1,-0.9%,9.2,-0.2,-0.5,-15.8,2.4
COc1ccc(C2=CC(c3ccc(OC)c(OC)c3)n3nnnc3N2)c(OC)c1 (configuration not stated),-0.2%,22.1,-0.1,0.3,21.7,13.9
CC(C)CN(C)C(=O)CCc1nnc(Cc2cccc(C(F)(F)F)c2)o1,0.0%,2.8,1.7,0.4,4.3,-4.3
COC(=O)c1cc(C(=O)NCCN2C(=O)S/C(=C\c3cccs3)C2=O)cc([N+](=O)[O-])c1,-0.1%,1.3,-0.6,0.1,-2.0,5.2
CCCOC(=O)c1cccc(Nc2nc(-c3cccnc3)nc3ccccc23)c1,3.3%,-6.2,?,-0.7,-8.3,-1.5
CCc1ccc2nc(N(CCCN(C)C)C(=O)c3ccc(C(=O)c4ccccc4)cc3)sc2c1,-1.9%,?,-5.0,-0.4,?,-21.2
COc1ccc(OC)c(C2C(C#N)=C(N)Oc3cc(C)[nH]c(=O)c32)c1 (configuration not stated),-2.3%,6.5,-2.4,0.0,-0.5,11.3
CC(Oc1ccc(Cl)cc1Cl)C(=O)NN=C1CCN(C)CC1 (configuration not stated),4.1%,-2.9,2.2,0.6,-1.1,-3.5
COc1cccc(C(=O)NNC(=O)c2sccc2-n2cccc2)c1,1.0%,-4.2,-6.0,0.4,-2.4,-2.2
COc1ccccc1CNC(=O)c1cc(-c2cc(Cl)ccc2C)n[nH]1,10.7%,-7.0,4.0,-0.5,-6.5,-2.1
COc1ccc(C2CC(=O)NC3=C2C(=O)CCC3)cc1Cl (configuration not stated),-0.9%,9.7,0.2,0.2,2.2,-11.6
CC1(C(=O)NS(=O)(=O)c2cccc(Cl)c2)CCN1C(=O)Cc1ccsc1 (configuration not stated),1.9%,4.7,-4.6,-1.0,5.5,1.3
CCOC(=O)[C@H]1[C@H]2COc3ccc(C)cc3[C@@H]2N2C(=O)CN(C)C(=O)[C@@]12C,0.8%,-1.2,-1.0,-0.3,4.0,-1.7
O=C(NNc1nc2ccccc2nc1C(F)(F)F)c1ccccc1,-1.0%,0.6,-1.1,0.7,2.1,0.1
C=C(C)CNC(=S)N/N=C/c1ccc(NC(C)=O)cc1,0.9%,5.0,5.1,-0.3,2.9,1.5
O=C(NCCCN1CCOCC1)C1CCN(S(=O)(=O)c2c(Cl)cccc2Cl)CC1,1.5%,13.5,12.4,0.1,7.3,-11.1

# Among those listed so far, these contain an NH in an aromatic ring.
SMILES,PINK1 expr mod,Six1-Eya2 blk,D2 ag,TRPML1 agonist,CtBP-E1A inh,D2 PAM
CCCn1c(-c2ccc(OC)cc2)nc2c(=O)n(C)c(=O)[nH]c21,7.2%,1.8,-1.4,-0.4,-1.3,-15.6
CCCCn1c(N)c(N(CCC(C)C)C(=O)C2CSC3(C)CCC(=O)N23)c(=O)[nH]c1=O (configuration not stated),-1.9%,0.0,-1.8,0.3,-21.7,-5.3
COc1cc2[nH]c(=S)nc(NCc3cccs3)c2cc1OC,2.0%,-84.5*,2.0,1.2,-89.5*,-9.6
COc1ccc(OC)c(C2C(C#N)=C(N)Oc3cc(C)[nH]c(=O)c32)c1 (configuration not stated),-2.3%,6.5,-2.4,0.0,-0.5,11.3
COc1ccccc1CNC(=O)c1cc(-c2cc(Cl)ccc2C)n[nH]1,10.7%,-7.0,4.0,-0.5,-6.5,-2.1

# New compounds follow:
SMILES,PINK1 expr mod,Six1-Eya2 blk,D2 ag,TRPML1 agonist,CtBP-E1A inh,D2 PAM
CCOC(=O)[C@H]1[C@H]2COc3ccc(C)cc3[C@@H]2N2C(=O)[C@@H](CO)NC(=O)[C@@]12C,-0.8%,5.1,-0.6,-0.3,-1.6,-11.7
COc1ccc(Cl)cc1NC(=O)NNC(=O)C(=O)Nc1ccc(F)cc1,1.9%,10.3,6.2,0.5,0.0,-8.0
Cc1ccc(Cl)cc1NC(=O)COc1ccccc1,0.0%,5.0,2.7,/,/,-14.6
Cc1ccc(NC(=O)N2CCC(c3nc4c(nnn4Cc4c(F)cccc4Cl)c(=O)[nH]3)CC2)cc1,/,-4.6,-1.9,0.9,2.9,-21.6
CCCC(=O)Nc1ccccc1N1CCN(C(=O)C(C)C)CC1,-1.7%,26.2,2.9,1.2,-4.2,11.5
COc1ccc(-n2c(O)c(/C=N/NS(=O)(=O)c3cc(C)ccc3C)c3ccccc3c2=O)cc1OC,4.7%,-13.1,-1.9,?,-0.7,-13.8
COc1ccc(S(=O)(=O)NCC(=O)N(Cc2ccco2)C(C(=O)NC(C)(C)C)C(C)C)cc1 (configuration not stated),0.7%,2.0,-2.0,-0.7,8.8,3.0
CCCCn1c(=O)cc(C)n(-c2ccccc2)c1=O,-1.1%,-2.4,-4.9,-0.6,-24.8,-5.7
O=C1COc2ccc(C(=O)c3ccccc3)cc2CN1,7.0%[38.3 µM],5.0,-1.4,0.3,2.5,-5.5
Cc1ccc([N+](=O)[O-])cc1N(CC(=O)NC1CCCC1)S(C)(=O)=O,3.1%,2.4,-2.3,-1.5,5.2,-2.7
CCN(CC)C(=O)[C@H]1CC(CC(=O)NCC23CC4CC(CC(C4)C2)C3)C(=O)N2CCc3c([nH]c4ccccc34)[C@]12C (some centres not stated),?,-7.4,1.6,0.4,6.7,/
CCCCC(C(=O)NC(=O)NCc1ccccc1)N1C(=O)c2ccccc2C1=O (configuration not stated),1.9%,-3.2,-0.4,3.2,-2.8,5.0
CCOc1ccccc1-c1nc(CN(Cc2cnn(C)c2)C(C)C)c(C)o1,3.5%,3.3,-2.7,-0.1,6.5,-14.2
CCOC(=O)C1CCN(C(=O)c2cccnc2)CC1,-0.2%,-1.5,5.2,0.1,-2.0,-25.2
COc1ccc(-n2nnc3c(SCC(=O)N4CCCc5ccccc54)ncnc32)cc1,-1.6%,-3.0,-2.1,-0.8,0.6,-2.7
O=C(CSc1nnc2ccccn12)NCCc1ccc(Cl)cc1,1.2%,2.4,-1.1,-0.3,5.4,2.2
Cc1c(C(=O)N2CCOCC2)c(S(=O)(=O)Nc2ccc(C(C)C)cc2)c(C)n1C,1.4%,2.8,3.0,-0.4,2.0,5.1
Cc1cccc(NC(=O)c2ccc(N(C)C3CCCCC3)c([N+](=O)[O-])c2)n1,9.4%,?,4.3,1.4,?,2.2
OC(Cn1cncn1)(c1ccccc1)c1ccccc1,0.4%,6.7,0.1,0.3,9.3,-14.9
O=C(CN1CCN(c2ccccc2)CC1)Nc1ccc(F)cc1,-0.2%,2.6,-0.9,-0.7,9.9,-11.8
COc1ccc(CC(=O)Nc2ccc(-c3cn4ccccc4n3)cc2)cc1,5.4%,-0.8,-2.0,0.4,-19.4,-0.1
COCCn1c(SCC(=O)Nc2nnc(C)s2)nnc1-c1ccco1,1.0%,6.3,-20.1,1.0,19.3,-14.2
CC1(C(=O)NS(=O)(=O)c2cccc(Cl)c2)CCN1C(=O)CC1CC1 (configuration not stated),1.2%,10.7,-0.2,-0.1,4.8,-6.5
O=C(CCN1CCN(c2ccccc2)CC1)Nc1ccccc1,1.0%,4.7,3.8,0.5,0.0,0.6
O=C(O)CC1(CC(=O)N2CCC(C(=O)O)CC2)CCCC1,1.6%,-1.9,-3.2,0.3,5.9,-1.6
CCN1CCN(c2nc3ccccn3c(=O)c2/C=C(\C#N)S(=O)(=O)c2ccccc2)CC1,4.5%,-22.1,-8.4,-0.2,-12.1,-21.3
C=CCn1c(COc2ccc(F)cc2)nnc1SCC(=O)NC(=O)NCc1ccco1,/,-9.5,0.5,1.0,7.3,6.0
CCC(=O)Nc1cc2c(C)cc(=O)oc2cc1C,-1.0%,0.5,-1.9,6.6,0.3,-4.1
Cn1c(SCc2ccccc2)nnc1-c1ccncc1,1.9%,4.6,0.6,0.0,-6.3,-16.4
NS(=O)(=O)c1cccc(NC(=O)COC(=O)CCC(=O)c2cccs2)c1,1.1%,-0.5,-4.7,0.8,-18.7,-2.3
CCOC(=O)c1nn(-c2ccc(C)cc2)c(=O)c2c(N)scc12,13.2%,-11.9,-1.5,-0.5,-20.4,-9.4
COCCn1c(-c2ccc(Br)cc2)csc1=Nc1cccnc1,-1.0%,-25.3,5.4,1.6,0.8,7.3
CCC1CCC(c2nnc(-c3ccc(Br)cc3)o2)CC1 (configuration not stated),22.0%,16.5,-1.9,0.9,8.2,-12.7
CCOC(=O)/C(C#N)=C/c1c(Oc2cccc(C)c2)nc2ccccn2c1=O,-0.6%,3.9,-5.7,-1.3,/,-16.3
